Source: PubChem
Mtb growth = Mycobacterium tuberculosis H37Rv growth inhibition, putative kinase inhibitor library, confirmatory dose response (AID 2842); inhibition, % at 10 µg/mL, or IC90 in µg/mL where a hit was titrated; actives 5.2% (n = 24,000); M. tuberculosis H37Rv growth inhibition; higher % means a stronger effect; some inactives read as strong as hits;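 active = confirmed in a dose series; about a fifth of its hits are not listed in these tables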;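 also: bacteria incubated one week before Alamar blue readout; 0% = bacteria only wells and 100% = bacteria with high antibiotic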
Active calls of the source: *. Some of the compounds tested; the hit share may differ from the screen's.

SMILES	Mtb growth
CCOC(=O)C(C)Oc1cccc2c(=O)n(CC(=O)Nc3ccccc3C)ccc12 (stereo unspecified)	12%
Cc1cccc(-c2nnc(NC(=O)c3ccccc3Br)s2)c1	11%
COc1cc(NC(=O)Cn2ccn(-c3cccc(OC)c3)c(=O)c2=O)cc(OC)c1	-8%
O=C1CCCN2N=C(SCC(=O)NCc3ccco3)SC2=N1	-5%
COc1ccc(Cn2cc(C(=O)c3ccccc3)c(=O)c3cc4c(cc32)OCCO4)cc1	7%
Cc1ccc(-n2c(SCC(=O)Nc3cc(C)on3)nc3c(c2=O)SCC3)cc1	12%
Cc1ccc(N2CC(C(=O)Oc3coc(CSc4ncccn4)cc3=O)CC2=O)cc1C (stereo unspecified)	-10%
Cc1nc2sc(C(c3ccc(Cl)cc3)N3CC(C)CC(C)C3)c(O)n2n1 (stereo unspecified)	1%
COc1ccc(-n2c(SCc3ccc([N+](=O)[O-])cc3)nc3c(c2=O)SCC3)cc1	-2%
COc1ccc(C(=O)Oc2cc(N)n(S(=O)(=O)c3ccccc3)n2)cc1	-4%
CC(C)Cn1c(N2CCCC2)nc2c1c(=O)[nH]c(=O)n2C	1%
O=C(Nc1ccccn1)c1cc2ccccc2oc1=O	5%
O=C(CN1N=NC2C(=O)N(c3ccc4c(c3)OCCO4)C(=O)C21)Nc1cccc(F)c1 (stereo unspecified)	-15%
CCOc1ccc2nc(N3CCN(c4ccccc4)CC3)sc2c1	0%
CC1C(=O)N2CCCc3cc(NC(=O)C(=O)NCc4ccc(Cl)cc4)cc1c32 (stereo unspecified)	1%
COc1ccc(Cl)cc1C(=O)NCCc1cc2cc(C)c(C)cc2[nH]c1=O	-3%
Cc1sc(NC(=O)CS(=O)(=O)c2ccccc2)c(-c2nc3ccccc3s2)c1C	-13%
Cc1ccc(-n2ncc3c(SCC(=O)NCc4ccc5c(c4)OCO5)ncnc32)c(C)c1	-2%
CCOc1ccc(NC2CC(=O)N(c3cccc(Cl)c3C)C2=O)cc1 (stereo unspecified)	61%
N#C/C(=C\Nc1ccc(F)c(Cl)c1)c1nc(-c2cccc([N+](=O)[O-])c2)cs1	9%
CC(=O)N1CCc2c(sc(NC(=O)c3cccc(Br)c3)c2-c2nc3ccccc3s2)C1	3%
CC1CC(C)CN(c2nc3c(c(=O)n(C)c(=O)n3C)n2CCSc2nnnn2-c2ccccc2)C1 (stereo unspecified)	-2%
O=C(Nc1nc2ccc(Br)cc2s1)c1ccc2ccccc2c1	6%
CCOc1ccc(-n2c(-c3ccccc3)cn3c4c(=O)[nH]c(=O)n(C)c4nc23)cc1	-2%
CCOC(=O)c1oc2ccccc2c1NC(=O)c1ccccc1F	-3%
COc1ccc2c(c1)c(=O)c(C(=O)c1ccccc1)cn2CC(=O)Nc1ccc(Cl)cc1	71%
Cc1cnc(=O)[nH]c1SCc1ccc(Cl)c(Cl)c1	-15%
CCOC(=O)c1nn(-c2ccc(Cl)cc2)c(=O)c2c(NC(=O)Cc3ccc(Cl)cc3)scc12	-2%
COC(=O)c1c(NC(=O)c2ccccc2)sc2c1CC(C)(C)NC2(C)C	17%
CCc1ccccc1NC(=O)Cc1csc(NS(=O)(=O)c2ccccc2)n1	1%
COC(=O)C(C)Sc1nc2c([nH]c3ccccc32)c(=O)n1-c1cccc(OC)c1 (stereo unspecified)	2%
O=C(COc1ccccc1/C=C1\SC(=O)NC1=O)Nc1ccc(F)cc1	76%
CCCNC(=O)CSc1nnc2[nH]c(=O)c(C)c(C)n12	-3%
CCOC(=O)c1ccc(NC(=O)/C=C2\SC(=O)N(CC(=O)Nc3ccc(S(N)(=O)=O)cc3)C2=O)cc1	2%
COc1ccc(-c2nc(C(N)=O)c3[nH]c(=O)n(-c4ccc(F)cc4)c3n2)cc1	-1%
Cc1cc2c(=O)n(C)c(SCC(=O)c3cccs3)nc2s1	6%

Random excerpt: four entries already listed, in no set order.
SMILES	Mtb growth
CCc1ccccc1NC(=O)Cc1csc(NS(=O)(=O)c2ccccc2)n1	1%
CCOC(=O)c1oc2ccccc2c1NC(=O)c1ccccc1F	-3%
CCCNC(=O)CSc1nnc2[nH]c(=O)c(C)c(C)n12	-3%
Cc1cc2c(=O)n(C)c(SCC(=O)c3cccs3)nc2s1	6%

(further entries)
SMILES	Mtb growth
O=C1c2ccccc2C(=O)N1CCCn1c(=O)oc2ccccc21	-16%
Cn1c(=O)c2c(SCc3cccc(F)c3)nc(C3CC3)nc2n(C)c1=O	-3%
Cc1ccc(O)c(Nc2nc(=O)[nH]nc2C)c1	-9%
CC(=O)Oc1cc2c(C(=O)NCc3ccncc3)c(C)oc2c2ccccc12	-12%
CCCCc1ccc(Nc2ncnc(N)c2[N+](=O)[O-])cc1	10%
CC(=O)Nc1cccc(NC(=O)CSc2ncnc3c2cnn3-c2ccc(Cl)cc2)c1	-7%
CS(=O)(=O)c1cccc(-c2nnc(NC(=O)c3ccc(Cl)cc3Cl)o2)c1	1%
COc1ccc(CC(=O)Nc2c(C(=O)Nc3ccc(F)c(F)c3)oc3ccccc23)cc1OC	-3%
Cc1csc2ncc(C(=O)Nc3ccc4c(c3)OCO4)c(=O)n12	-3%
COc1ccc(S(=O)(=O)OCCN2C(=O)c3ccccc3C2=O)cc1OC	-7%
COc1ccc2oc(-c3ccccc3)c(C(=O)N3CCOCC3)c2c1	2%
Cc1ccc(NC(=O)CSc2nc3c(c(=O)n2-c2ccc(F)cc2)SCC3)c(C)c1	8%

Single values from the entries so far.
Mtb growth result of `CCCCc1ccc(Nc2ncnc(N)c2[N+](=O)[O-])cc1` stands at 10%
Mtb growth result of `O=C1c2ccccc2C(=O)N1CCCn1c(=O)oc2ccccc21` stands at -16%
Mtb growth result of `COc1ccc(S(=O)(=O)OCCN2C(=O)c3ccccc3C2=O)cc1OC` stands at -7%

The results go on:
SMILES	Mtb growth
CCOC(=O)COc1ccc(/C=C2\Oc3cc(OC)ccc3C2=O)cc1	3.3µg/mL*
COc1cccc2c(=O)cc(C)n(CC(=O)Nc3ccc(C)cc3)c12	-5%
Cc1cc(F)ccc1S(=O)(=O)Nc1ccc2c(c1)CC(=O)N2	6%
O=C1NC(=O)/C(=C/c2ccc(C(=O)O)cc2)S1	-21%
CCCc1cc(=O)[nH]c2nnc(SCc3ccc(F)cc3)n12	-7%
Cc1ccc(S(=O)(=O)/N=C(/Nc2ccc(S(N)(=O)=O)cc2)c2ccccc2)cc1	4%
COc1ccccc1NC(=O)CSc1nnc(-c2cccnc2)n1-n1cccc1	-3%
O=C(NCCc1ccc(Cl)cc1)C(=O)Nc1ccon1	24%
CCn1c(SCC(=O)Nc2ccc3c(c2)OCO3)nc2c(c1=O)SC(C)C2 (stereo unspecified)	-2%
Cc1ccc(C)c2[nH]c(=O)c(CCNC(=O)c3ccccc3Cl)cc12	-5%
Cc1nnc(NC(=O)CSc2nnc(CNC(=O)COc3ccccc3)n2-c2ccc(F)cc2)s1	-6%
Cc1ccc2cc(CCNC(=O)c3ccccc3[N+](=O)[O-])c(=O)[nH]c2c1C	-3%

Arranged by number of heavy atoms (rising): 4 of the compounds above
SMILES	Mtb growth
COc1cccc2c(=O)cc(C)n(CC(=O)Nc3ccc(C)cc3)c12	-5%
CCOC(=O)COc1ccc(/C=C2\Oc3cc(OC)ccc3C2=O)cc1	3.3µg/mL*
Cc1ccc2cc(CCNC(=O)c3ccccc3[N+](=O)[O-])c(=O)[nH]c2c1C	-3%
Cc1ccc(S(=O)(=O)/N=C(/Nc2ccc(S(N)(=O)=O)cc2)c2ccccc2)cc1	4%

(further entries)
SMILES	Mtb growth
O=C(O)c1ccccc1-c1ccc(-c2cc(C(=O)O)c3cc(F)ccc3n2)o1	48%
O=C(CCSc1ccccc1)Nc1nnc(-c2ccc3c(c2)OCCO3)o1	17µg/mL*
O=C(CSc1ccc2nnc(-c3cccnc3)n2n1)Nc1ccc2c(c1)OCO2	0%
COc1ccc(N2C(=O)c3sc4nc(=O)c5ccccc5n4c3C2=O)cc1	5%
O=C(O)c1ccc2[nH]c3ccccc3c2c1	3%
Nc1nc(SCC(=O)Nc2nc3ccccc3s2)[nH]c(=O)c1NC(=O)c1ccco1	-6%
CCOC(=O)c1[nH]c2ccccc2c1NC(=S)Nc1cc(OC)ccc1OC	13%
COc1cccc(OC)c1C(=O)Nc1nnc(-c2ccccc2C)s1	12%
O=C(CSc1ncnc2c1cnn2-c1ccc(Cl)cc1)Nc1ccc([N+](=O)[O-])cc1	-4%
CCOc1ccccc1NC(=O)C(=O)Nc1cc2c3c(c1)CCC(=O)N3CCC2	52%
NC(=O)c1c(NC(=O)c2sc3ccccc3c2Cl)sc2c1CCN(Cc1ccccc1)C2	-1%
O=C(c1ccc(Cl)cc1)N1CCN(c2ccc(N3CCOCC3)nn2)CC1	-7%
COc1ccc(NC(=O)CSc2ccc3nnc(-c4ccccc4)n3n2)cc1	3%
CN(C(=O)c1cccs1)c1nnc(C23CC4CC(CC(C4)C2)C3)s1	32%
COc1ccc(Nc2nc(NC3CCCC3)nc3nccnc23)cc1	35%
O=C(CSc1nc2c(c(=O)n1-c1ccc(Cl)cc1)SCC2)NC1CCCCC1	13%
O=C(Nc1cccc(Cl)c1Cl)NC1CC(=O)N(c2ccc(F)cc2)C1 (stereo unspecified)	67%
COc1ccc(-c2nnc3ccc(SCC(=O)Nc4ccccc4C)nn23)cc1	1%
Cc1nc2sc(C(c3ccc(F)cc3)N3CCCC(C)C3)c(O)n2n1 (stereo unspecified)	0%
CC1Cc2nc(SCC(=O)Nc3ccc4c(c3)OCCO4)n(C)c(=O)c2S1 (stereo unspecified)	-13%
O=C(CSc1ccc2nnc(-c3ccc(F)cc3)n2n1)Nc1cccc(Cl)c1	1%
Cc1c(C(N)=O)sc2ncn(Cc3cccc(Oc4ccccc4)c3)c(=O)c12	-3%
Cc1cc(C)c2c(N)[nH]nc2n1	6%
COC(=O)c1ccc(C2NC(=O)NC(O)(C(F)(F)F)C2C(=O)c2ccc(F)cc2)cc1 (stereo unspecified)	8%
N#Cc1ccc(-c2csc(NC(=O)c3ccccc3Oc3ccccc3)n2)cc1	2%
Cc1ccc(/C(O)=C2/C(=O)C(=O)N(Cc3ccco3)C2c2ccc(N(C)C)cc2)cc1F (stereo unspecified)	-16%
Cc1csc(N2C(=N)SCC2=O)n1	8%
Cc1ccc(S(=O)(=O)N2CCCc3ccc(NC(=O)C(=O)Nc4ccc(F)cc4)cc32)cc1	-13%
CC1=C(C(=O)Nc2ccccc2C)C(c2cccs2)n2c(s/c(=C3\C(=O)Nc4ccc(Br)cc43)c2=O)=N1 (stereo unspecified)	63%
COc1ccc(NC(=O)CSc2nnc3[nH]c(=O)c(C)c(C)n23)cc1	-11%
COc1ccc(-c2nnc3ccc(SCC(=O)Nc4ccccc4F)nn23)cc1	-5%
Cc1cc(C)c(NC(=O)CSc2nc(N)c(NC(=O)c3ccco3)c(=O)[nH]2)c(C)c1	-15%
COc1ccc(CC(=O)Nc2c(C(=O)Nc3cccc(Cl)c3)oc3ccccc23)cc1OC	7%
COc1ccc(NC(=O)CSc2nnc3c(C)cc4ccccc4n23)cc1	7%
COC(=O)CSC(C)C(=O)Nc1nnc(-c2ccccc2C)s1 (stereo unspecified)	46%
CCS(=O)(=O)c1cccc(C(=O)N=c2sc3cc(C(=O)OC)ccc3n2C)c1	-9%
Cc1cc(Cl)ccc1Nc1nnc(C)c(=O)[nH]1	12%
CCOCCn1c(N2CCNCC2)nc2c1c(=O)[nH]c(=O)n2C	-13%
COc1ccc(Cl)cc1C(=O)Nc1nnc(-c2ccc(Cl)cc2Cl)s1	0%
Cc1cccn2c(=O)c3cc(C(=O)NCc4cccnc4)c(=N)n(Cc4ccncc4)c3nc12	-18%
COc1ccccc1-n1c(CNC(=O)c2cccc(F)c2)nnc1SCC(=O)Nc1nnc(C)s1	0%
CCc1ccccc1NC(=O)c1sc2nc3c(cc2c1N)C(=O)CCC3	-12%
COc1ccc(C(=O)Nc2c(C(=O)Nc3ccccc3F)oc3ccccc23)cc1OC	1%
C=CCn1c(SCC(=O)NCc2cccnc2)nc2sc(C)c(C)c2c1=O	0%
CC1(C)CC(=O)c2sc(NC(=O)c3ccc(N4C(=O)CCC4=O)cc3)nc2C1	10%
CNC(=S)N(CCc1c(C)[nH]c2ccc(C)cc12)Cc1cccnc1	8%
Cc1n[nH]c(=O)nc1N/N=C/c1cccc(OCc2ccccc2Cl)c1	36µg/mL*
CC(C)N(C(=O)Cn1cnc2ccccc21)C(C)C	6%
Cn1c(=O)c2c(SCC(=O)Nc3nccs3)nc(-c3cccs3)nc2n(C)c1=O	-4%
COC(=O)c1ccc(N2C(=O)CC(Nc3ccc(N4CCCCC4)cc3)C2=O)cc1 (stereo unspecified)	-5%
COC(=O)c1ccccc1NC1SC(=O)N(c2ccc(C)cc2)C1=O (stereo unspecified)	1%
Cc1ccc2sc(NC(=O)CCc3ccccc3)nc2c1C	-2%
COc1ccc(C(=O)Nc2ccc3nc[nH]c3c2)cc1OC	-8%
O=C(Nc1nnc(-c2ccccc2Cl)s1)c1ccc(Cc2ccccc2)cc1	12%
CC(Cl)C(=O)Nc1c(C(=O)Nc2ccc3c(c2)OCCO3)oc2ccccc12 (stereo unspecified)	-10%
CCOC(=O)c1oc2ccccc2c1NC(=O)c1cc(OCC)c(OCC)c(OCC)c1	10%
NC(=O)CSc1nc(N)c(NC(=O)c2cccs2)c(=O)[nH]1	-18%
Cc1ccc(N2CCn3c2nc2c3c(=O)n(CC(=O)O)c(=O)n2C)cc1	4%
COCCn1c(SCC(=O)Nc2cc(C)ccc2C)nc2c(oc3ccccc32)c1=O	-7%
COC(=O)COc1ccc2c(-c3cc4ccccc4oc3=O)cc(=O)oc2c1	11%
CCOC(=O)COc1cccc2c(=O)n(CC(=O)Nc3cccc(Cl)c3)ccc12	-6%
Clc1ccc(Nc2ncnc3c2cnn3-c2cccc(Cl)c2)cc1	16%
